HPGD block: HPGD (human) dehydrogenase inhibition; P15428; purified HPGD, NADH fluorescence kinetic, PGE2 substrate; Potency, µM, inactives show at the top dose activity change, negative = inhibition, hits mostly inhibitors; 150,000 compounds, 4.3% hits; AID 894; active = well fitted inhibition curve with a large enough effect (not every such curve was filed as active); inconclusive = small, poorly fitted or top-dose-only effect, or another doubt; inactive = no such curve, though single readings can be large or run the other way;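 also: top concentration of the series not given in the record; plate controls included wells without enzyme; inactives centre near -10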
Target sequence (P15428 whole entry, looked up): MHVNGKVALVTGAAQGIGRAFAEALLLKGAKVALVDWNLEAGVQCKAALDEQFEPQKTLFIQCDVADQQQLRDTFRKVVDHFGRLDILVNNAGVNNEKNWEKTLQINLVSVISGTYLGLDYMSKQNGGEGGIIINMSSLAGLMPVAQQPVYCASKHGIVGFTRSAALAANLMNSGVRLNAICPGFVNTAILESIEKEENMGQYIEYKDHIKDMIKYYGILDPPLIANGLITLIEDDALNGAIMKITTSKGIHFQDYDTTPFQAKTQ
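20 nM HPGD preincubated 15 min at room temperature with compound in 50 mM Tris-HCl pH 8, 0.01% Tween 20. Started with 1 mM NAD+ and 30 uM prostaglandin E2; NADH fluorescence (360/450 nm) read 5 times over 30-s intervals, last minus first.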
Starred values were filed as active, the others as inactive; ? = inconclusive; & = joins results of further samples. % is scaled to controls: 0 for no effect and ±100 for the full control effect; potency is read from the fitted curve at half-maximal effect.

Sample of the layout (five entries):
SMILES	HPGD block
COC(=O)c1ccc(C23CC4(C2)[C@H](CN(Cc2ccc(C(F)(F)F)cc2)[C@@H]4c2ccccc2)C3c2ccc(Cl)nc2)cc1 (stereo not given in full)	-12.1%
Cc1ccc(S(=O)(=O)CCC(=O)NCc2ccccc2Cl)cc1	-3.2%
CCCN(CCC)CCNC(=O)C1c2ccccc2C(=O)N(CCOC)C1c1ccc(F)cc1 (stereo not given)	-4.8%
COc1ccc(OCC(O)Cn2c(=N)n(CCN3CCOCC3)c3ccccc32)cc1 (stereo not given)	-1.2%
COc1ccc(CN2C(=O)c3cccnc3C2O)cc1 (stereo not given)	-4.3%

The list itself, repeating the preview:
SMILES	HPGD block
COC(=O)c1ccc(C23CC4(C2)[C@H](CN(Cc2ccc(C(F)(F)F)cc2)[C@@H]4c2ccccc2)C3c2ccc(Cl)nc2)cc1 (stereo not given in full)	-12.1%
Cc1ccc(S(=O)(=O)CCC(=O)NCc2ccccc2Cl)cc1	-3.2%
CCCN(CCC)CCNC(=O)C1c2ccccc2C(=O)N(CCOC)C1c1ccc(F)cc1 (stereo not given)	-4.8%
COc1ccc(OCC(O)Cn2c(=N)n(CCN3CCOCC3)c3ccccc32)cc1 (stereo not given)	-1.2%
COc1ccc(CN2C(=O)c3cccnc3C2O)cc1 (stereo not given)	-4.3%
CCOc1ccc(N(CC(=O)NCc2cccc(OC)c2)S(=O)(=O)c2c(C)noc2C)cc1	-9.4%
CN1CCN(C(=O)C2CCC(CNS(=O)(=O)c3cccc4cccnc34)CC2)CC1 (stereo not given)	15.8µM*
CC(C)NC(=O)C1CCN(C(=O)C(C(=O)c2ccccc2)n2cc(Cl)ccc2=O)CC1 (stereo not given)	-6.2%
COC(=O)c1sccc1NC(=O)C1C2C=CC(O2)C1C(=O)O (stereo not given)	0.8%
CSc1nc2ccccc2n1Cc1c(Cl)cccc1Cl	-8.0%
C#CCNc1nc(C)nc2c1nnn2Cc1ccccc1F	-4.4%
Cc1ccc(S(=O)(=O)/C(C#N)=C/c2c(N3CCN(C)CC3)nc3ccccn3c2=O)cc1	-9.5%
O/N=C1/CCCCc2sccc21	-17.9%
Cc1cccn2c(=O)c3cc(C#N)c(=N)n(CCN4CCOCC4)c3nc12	?
CCOC(=O)c1sc(NC(=O)CN(CC)CC)c(C(=O)OCC)c1C	-8.4%
C=CCc1cc(/C=N\NC(=O)CSc2nnc(CCCc3ccc(OC)c(C)c3)o2)cc(OC)c1O	-0.7%
Cn1cc(Cl)c(-c2n[nH]c(=S)n2-c2ccc(F)cc2)n1	-10.8%
CC(=O)OC1CC[C@@]2(C)C3CC[C@@]4(C)C(CC5O[C@@]6(CCC(C)CO6)C(C)C54)C3CC[C@@H]2C1 (stereo not given in full)	-6.9%
FC(F)(F)c1cnc(Sc2nnc(-c3cccs3)n2CC2CCCO2)c(Cl)c1 (stereo not given)	-2.1%
c1cncc(CNc2nc(-c3ccc4c(c3)OCO4)nc3ccccc23)c1	-27.3%
O=C(CCl)N(c1ccc(Cl)cc1)c1c[nH]c2ccccc12	-23.7%
CCOc1ccc(N(CC(=O)NCC2CCCO2)S(=O)(=O)c2ccc(OC)c(OC)c2)cc1 (stereo not given)	0.4%
c1ccc2c(c1)[nH]c1ccccc12	-15.3%
COc1cc(OC)cc(C(=O)NCC(=O)OCC(=O)c2ccc3c(c2)-c2ccccc2C3)c1	-21.5%
COc1ccc(N2CCN(c3nc(NCCO)nc(N4CCOCC4)n3)CC2)cc1	-3.0%
Additional entries:
SMILES	HPGD block
O=C(NCCN1CCN(Cc2ccccc2Cl)CC1)Nc1ccccc1	-1.7%
COc1ccc(-n2nnc3c(SCC(=O)NCc4ccco4)ncnc32)cc1	28.2µM*
Cc1nc2ccccc2c(=O)n1CC(=O)N1CCOCC1	-2.6%
CCOc1ccc(Nc2nc(Cc3nnc(SCC(=O)N(CC)CC)n3C)cs2)cc1	-11.1%
Oc1ccccc1/C=N/n1cnnc1	-13.0%
COc1cccc(/C=N/Nc2nn3cnnc3c3ccccc23)c1	?
CCCC/C=C/C(NC(=O)c1ccc(C(F)(F)F)cc1)c1ccccc1 (stereo not given)	-17.4%
CCOC(=O)CCCc1sc(N)nc1-c1[nH]c(=O)[nH]c1C	31.6µM*
C=CCN1C(=O)/C(=C/c2ccc(N(C)C)cc2)S/C1=N\c1nnc(CC)s1	-10.4%
CCOC(=O)Cc1csc(NC(=O)NC2(C(F)(F)F)Oc3ccc(Cl)cc3O2)n1 (stereo not given)	-17.9%
COC(=O)c1ccc(CSc2nnc(-c3ccc4c(c3)OCO4)n2-c2ccccc2)o1	-11.6%
Cc1cc(Nc2ccccc2)n(-c2ccc(Br)cc2)n1	-20.6%
Cc1ccc(C(C(=O)NCCc2ccccc2)N(C(=O)c2csnn2)C2CC2)o1 (stereo not given)	-3.9%
COc1cc(SC)ccc1C(=O)Nc1ccc(C)cc1C	?
O=C(COc1ccccc1F)Nc1ccc(S(=O)(=O)NCc2ccco2)cc1	-17.0%
CCC1Oc2ccc(C)cc2N(CC(=O)N(Cc2ccc(C)o2)C2CC(C)(C)NC(C)(C)C2)C1=O (stereo not given)	-8.8%
O=[N+]([O-])CC(=Nc1ccc(Cl)cc1)N/N=C\c1oc(O)c2ccccc12	-24.6%
CC1(C)CC(=O)C(C=NCC2CCNCC2)=C(O)C1	-10.4%
COc1ccc(-n2c(SCC#N)nc3ccccc3c2=O)cc1	1.1%
COc1ccc(NC(NC(=O)c2ccc(OC)cc2)C(Cl)(Cl)Cl)cc1 (stereo not given)	-11.6%
CSc1ccccc1NC(=O)Nc1ccccc1	-8.1%
Cc1ccc(NC(=O)CNc2ccc(Cl)c(Cl)c2)cc1S(=O)(=O)N(C)C	-1.4%
COc1ccc(-c2nnc(SC(C)C(=O)Nc3nccs3)n2-c2ccccc2)cc1OC (stereo not given)	4.1%
O=C(COc1ccc(C(=O)c2ccccc2)cc1)NC1CCCCC1	-9.0%
COc1cccc(N=CC2=C(O)CC(C)(C)CC2=O)c1	-19.3%

3 compounds already listed, arranged by the value under HPGD block, lowest first.
SMILES	HPGD block
CN1CCN(C(=O)C2CCC(CNS(=O)(=O)c3cccc4cccnc34)CC2)CC1 (stereo not given)	15.8µM*
COc1ccc(-n2nnc3c(SCC(=O)NCc4ccco4)ncnc32)cc1	28.2µM*
CCOC(=O)CCCc1sc(N)nc1-c1[nH]c(=O)[nH]c1C	31.6µM*

(listing goes on)
SMILES	HPGD block
CCn1c(NC(=O)c2ccc(F)cc2)c2ccccc2nc1=O	-2.0%
Cc1cccc(N2CN(Cc3ccco3)CNC2=S)c1	2.2%
COc1cccc(NC(=O)C(C)Oc2ccccc2)c1 (stereo not given)	-16.4%
Cc1c(C(=O)N(C)Cc2ccccc2)oc2ccc(S(=O)(=O)N3CCCC3)cc12	-3.0%
Cc1ccc2c(C(=O)CN3CCC4(CC3)OCCO4)c(C)[nH]c2c1	-4.2%
COC(=O)c1nn(-c2ccccc2)c(-c2ccccc2)c1C(=O)c1ccccc1	-4.1%
Cc1ccc(CN2C3=NCCCN3c3ccccc32)cc1	-4.3%
O=C(O)c1ccc(COc2c(F)c(F)c(F)c(F)c2F)o1	-14.5%
COc1cccc(NS(=O)(=O)c2cc(C)ccc2OC)c1	-3.8%
CN(C)CCN1C(=O)C(O)=C(C(=O)c2cc3ccccc3o2)C1c1cccc(Br)c1 (stereo not given)	-10.8%
CCCNC(=O)c1ccc(SC)cc1OC	25.1µM*
COc1ccc[nH]c1=O	0.9%
CC(C)c1ccc(S(=O)(=O)N2CCN(CCC(=O)Nc3ccc(N(C)C)cc3)CC2)cc1	-12.2%
Cc1ccc(NCc2nnc(SCC(=O)c3ccc4c(c3)OCCO4)o2)c(C)c1	-2.8%
COc1cc2c(cc1OC)CN(C(=O)C(C)(C)C)CC2	-16.6%
C=CCN(c1ccccc1OC)S(=O)(=O)c1cccc(C(=O)OCC(=O)c2c[nH]c3ccccc23)c1	-19.0%
COc1cc(NC(=O)CN2CCN(c3ccccc3O)CC2)c(C)cc1[N+](=O)[O-]	-11.2%
Cc1c(/C=N/NC(=O)c2sc3ccccc3c2Cl)cnn1C	-20.4%
COC(=O)C(C)(N)Cc1ccc(O)cc1 (stereo not given)	-24.5%
CCOC(=O)c1[nH]nc(-c2cc(CC)c(O)cc2O)c1-c1cscn1	-8.3%
Fc1ccc(NC(=S)NCc2cccs2)cc1	17.8µM*
O=C(c1ccc(Br)cc1)N1CCCC1	7.94µM*
CCOC(=O)C(Cc1c[nH]c2ccccc12)NC(=O)CNC(C)=O (stereo not given)	-3.6%
COC(=O)CC(NC(=O)c1ccc(C)cc1)c1ccc2c(c1)OCO2 (stereo not given)	1.4%
CCOC(=O)CC1C(C(=O)OCC)ON2OC(C(=O)OC)C(C(=O)OCC)C12 (stereo not given)	4.5%

Some of the entries so far, bar-delimited.
SMILES | HPGD block
CCCNC(=O)c1ccc(SC)cc1OC | 25.1µM*
Cc1cc(Nc2ccccc2)n(-c2ccc(Br)cc2)n1 | -20.6%

More records follow.
SMILES	HPGD block
C(=N\Nc1nc(N2CCOCC2)nc(N2CCOCC2)n1)/c1cccnc1	-14.6%
NNc1nc2c(Cl)cccc2s1	?
O=c1[nH]c2ccccc2n1CCCSCCCn1c(=O)[nH]c2ccccc21	?
COCc1cc(C)nc2sc(C(=O)OC)c(N)c12	-11.3%
CCOC(=O)N1C(=O)c2cc(OC)ccc2S1(=O)=O	-8.1%
O=C(C1CCCN(S(=O)(=O)c2cccc3nsnc23)C1)N1CCN(c2ccccn2)CC1 (stereo not given)	-1.4%
CN1CCN(/N=C/c2nc(-c3ccccc3)n3ccccc23)CC1	-8.2%
Nc1ncnc2nc(N3CCN(C(=O)c4ccccc4)CC3)[nH]c12	-19.1%
COc1ccc(C(=O)CSc2nnc(-c3cc(C)on3)o2)cc1	-12.0%
COc1cccc2c(=O)n(CC(=O)N3CCC(C)CC3)ccc12	-17.3%
CCCC/C=C/C(NC(=O)C(C)(C)C)c1ccccc1 (stereo not given)	-1.3%
Cc1cc(F)ccc1S(=O)(=O)Nc1ccccc1C(=O)Nc1ccccc1N1CCOCC1	-18.4%
COCCn1nnnc1C1(N(Cc2cc3cc(C)ccc3[nH]c2=O)CC2CCCO2)CCN(C)CC1 (stereo not given)	-25.6%
Cc1cc(C)n(CCO)c(=O)n1	-0.4%
CCc1nc(N)nc(N)c1-c1ccc(Cl)cc1	-0.6%&-5.7%&-8.3%&-18.0%
CC(C)CC(=O)Nc1ccc(OCC(=O)O)cc1	-2.4%
CCOC(=O)c1ccccc1NC1OC(=O)c2ccccc21 (stereo not given)	-25.1%
COc1ccc(-c2occ(C(=O)O)c2C(=O)O)cc1	?
O=C(N/C(=C/c1ccc(Cl)cc1)c1nc2ccccc2[nH]1)c1ccco1	?
C=CCNC(=S)N1CCN(CCN=CC2=C(O)CC(c3cccs3)CC2=O)CC1 (stereo not given)	-13.7%
COC(=O)c1sc(NC(=O)COc2ccccc2OC)nc1C	-4.3%
CC(C)Cc1ccc(/C=C/C(=O)NC2CC2)cc1	-28.4%
O=C(N/N=C/c1cn(Cc2ccccc2)c2ccccc12)c1cccnc1	-19.3%
CCOC(=O)c1[nH]c2ccc(OC)cc2c1NC(=O)OC	?
CCCc1nc(SCC(=O)NNC(=O)C2CCCCC2)c2ccccc2n1	-3.9%
Next part
SMILES	HPGD block
CCOC(=O)C1CCCN(C(=O)c2ccc(CNc3c(N4CCC(C)CC4)c(=O)c3=O)cc2)C1 (stereo not given)	10µM*
CCn1c(-c2ccc(F)cc2)n[nH]c1=S	-10.8%
CCOC(=O)CSC1=NC(=O)/C(=C\c2ccc(OC(C)=O)cc2)S1	25.1µM*
O=c1c(CCc2ccccc2)nc2cnc(N3CCOCC3)nc2n1C[C@H]1CCCO1	?
Cc1cccc(NC(=O)c2cc(Cl)sc2Cl)c1C	-7.5%
COc1cccc(Nc2nc(-c3sc(NC(=O)c4ccco4)nc3C)cs2)c1	-29.1%
CCc1ccc(Nc2nc(N)nc(CSc3nnnn3-c3ccccc3)n2)cc1	-20.4%
Cc1ccc(-n2[nH]c3c4c(ccc3c2=O)C(=O)c2ccccc2C4=O)cc1	-7.2%
O=C(O/N=C/C1=C(Cl)c2ccccc2CC1)c1ccc(F)cc1	-9.4%
O=C(Cn1[nH]c(=O)c2ccccc2c1=O)NC1CCN(Cc2ccccc2)CC1	-3.3%
CC1CN(c2nnnn2-c2ccccc2)CC(C)O1 (stereo not given)	-1.2%
CC(C)CN1CCCC2(CCN(C(=O)c3cc(C(F)(F)F)cc(C(F)(F)F)c3)CC2)C1	-4.4%
CN(/N=C/c1cccnc1)C1=NS(=O)(=O)c2ccccc21	-16.2%
COc1ccc(/C=N/Nc2nnc(-c3ccccc3)c(=O)[nH]2)cc1	-7.3%
Cc1ccc(NC(=O)COC(=O)CCC(=O)c2cccs2)cc1	-4.4%
Nc1nc(Cn2nnc(-c3ccccc3Cl)n2)nc(N2CCOCC2)n1	-4.5%
O=C(OC(C(=O)Nc1ccc(Cl)cc1C(F)(F)F)c1ccccc1)c1c(Cl)cccc1Cl (stereo not given)	-7.9%
COC(=O)c1[nH]c2ccccc2c1NC(=O)Oc1ccccc1	-28.0%
CCCC(=O)Nc1nc2ccc(OCC)cc2s1	-3.8%
O=C(CN1CCN(S(=O)(=O)c2ccc(Br)cc2)CC1)Nc1ccccc1C(=O)c1ccccc1	-12.5%
O=C(N/N=C1\CCc2ccccc21)c1ccccc1Cl	-19.6%
CC(C)c1nc(N2CCOCC2)c(C#N)c2c1COC(C)(C)C2	?
CC(=O)Nc1ccc(/C(C)=N/NS(=O)(=O)c2ccc(C)cc2)cc1	-7.4%
CC(=O)Nc1ccc(Cl)cc1C(=O)O	-20.1%

3 successive records out of the list so far:
SMILES	HPGD block
CCOC(=O)C1CCCN(C(=O)c2ccc(CNc3c(N4CCC(C)CC4)c(=O)c3=O)cc2)C1 (stereo not given)	10µM*
CCn1c(-c2ccc(F)cc2)n[nH]c1=S	-10.8%
CCOC(=O)CSC1=NC(=O)/C(=C\c2ccc(OC(C)=O)cc2)S1	25.1µM*

This is a subset. The share of hits here may be higher or lower than overall.
